Screening results deposited in PubChem by Broad Institute.
Ran importin – inhibitors of Ran–importin-beta complex formation, primary screen, biochemical, CFP-Ran/YFP-importin-beta FRET, RCC1, cell-free (AID 434961); Regulator of chromosome condensation (Homo sapiens) + GTP-binding nuclear protein Ran …; CFP-Ran/YFP-importin-beta FRET, cell-free; active compounds read high; inhibition, %; actives 0.2% (n = 7,700);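 active means more than half of the replicate wells above 15% inhibition; inconclusive means exactly half above it; inactive means fewer than half above it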;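 further: 0% = DMSO wells and 100% inhibition = RanGDP control wells on each plate; stock of unstated strength diluted about 400-fold; mean of two wells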
An asterisk follows results filed as active; ? = inconclusive.

SMILES	Ran importin
C[C@H]1CN([C@@H](C)CO)C(=O)c2cccc(NS(=O)(=O)c3ccc(Cl)cc3)c2O[C@@H]1CN(C)S(=O)(=O)c1cccs1	10
C[C@H]1CN([C@@H](C)CO)C(=O)Cc2cc(NC(=O)Cc3ccccc3)ccc2O[C@@H]1CN(C)S(=O)(=O)c1cccs1	-0.9
C[C@H](CO)N1C[C@H](C)[C@@H](CN(C)Cc2ccccc2)OCc2cnnn2CCCC1=O	-9.9
Cc1noc(C)c1S(=O)(=O)Nc1cccc2c1O[C@H](CN(C)Cc1ccncc1)[C@H](C)CN([C@@H](C)CO)C2=O	-6.0
Cc1noc(C)c1NC(=O)N(C)C[C@@H]1Oc2c(NC(=O)c3ccncc3)cccc2C(=O)N([C@H](C)CO)C[C@@H]1C	-1.3
C[C@@H]1CN([C@@H](C)CO)C(=O)c2cccc(NC(=O)C3CCOCC3)c2O[C@H]1CN(C)S(=O)(=O)c1cccs1	-3.1
C[C@H]1CN([C@@H](C)CO)C(=O)c2cc(N(C)C)ccc2O[C@@H]1CN(C)S(=O)(=O)c1ccccc1	-0.6
C[C@@H]1CN([C@@H](C)CO)C(=O)c2cc(NS(C)(=O)=O)ccc2O[C@@H]1CN(C)C(=O)NC1CCCCC1	0.3
Cc1noc(C)c1NC(=O)N(C)C[C@H]1Oc2c(NS(=O)(=O)c3cn(C)cn3)cccc2C(=O)N([C@@H](C)CO)C[C@H]1C	-1.2
Cc1ccc(S(=O)(=O)N(C)C[C@@H]2Oc3ccc(NC(=O)C4CC4)cc3CC(=O)N([C@@H](C)CO)C[C@@H]2C)cc1	2.0
C[C@H](CO)N1C[C@H](C)[C@H](CN(C)C(=O)Nc2ccccc2)Oc2ccc(NC(=O)CCC(F)(F)F)cc2CC1=O	-1.6
CNC[C@@H]1OCCCC[C@@H](C)Oc2ccc(NC(=O)Nc3cccc4ccccc34)cc2C(=O)N([C@H](C)CO)C[C@H]1C	3.4
Cc1noc(C)c1S(=O)(=O)Nc1ccc2c(c1)C(=O)N([C@@H](C)CO)C[C@@H](C)[C@H](CN(C)CC1CC1)O2	-1.5
C[C@H](CO)N1C[C@H](C)[C@H](CN(C)C(=O)Cc2ccccc2)OCCCC[C@H](C)Oc2ccc(NC(=O)c3ccncc3)cc2C1=O	0.7
Cc1noc(C)c1S(=O)(=O)Nc1ccc2c(c1)CC(=O)N([C@H](C)CO)C[C@H](C)[C@H](CN(C)C(=O)NC(C)C)O2	0.1
C[C@H](CO)N1C[C@H](C)[C@@H](CN(C)S(=O)(=O)c2cn(C)cn2)Oc2c(NS(C)(=O)=O)cccc2C1=O	-2.4
C[C@H]1CN([C@@H](C)CO)C(=O)c2cc(NC(=O)Nc3ccc4c(c3)OCO4)ccc2O[C@H]1CN(C)C(=O)Nc1ccc(F)cc1	-3.4
COc1ccc(S(=O)(=O)Nc2ccc3c(c2)C(=O)N([C@@H](C)CO)C[C@H](C)[C@@H](CN(C)S(=O)(=O)c2cccs2)O3)cc1	-0.5
C[C@@H]1CCCCO[C@@H](CN(C)C(=O)CCCN(C)C)[C@@H](C)CN([C@H](C)CO)C(=O)c2cc(NC(=O)CCCN(C)C)ccc2O1	-3.1
CNC[C@@H]1Oc2c(NS(=O)(=O)c3ccc(OC)cc3)cccc2C(=O)N([C@H](C)CO)C[C@H]1C	-2.1
C[C@@H]1CN([C@H](C)CO)C(=O)Cc2cc(NC(=O)Cn3cnnn3)ccc2O[C@@H]1CN(C)C	-2.3
C[C@H](CO)N1C[C@H](C)[C@H](CN(C)S(=O)(=O)c2cn(C)cn2)OCCCC[C@H](C)Oc2ccc(NC(=O)c3ccccc3)cc2C1=O	6.1
COc1ccc(CN(C)C[C@@H]2Oc3ccc(NC(=O)Cc4ccccc4)cc3CC(=O)N([C@H](C)CO)C[C@H]2C)cc1	2.3
Cc1noc(C)c1NC(=O)N(C)C[C@@H]1Oc2ccc(NS(C)(=O)=O)cc2CC(=O)N([C@H](C)CO)C[C@@H]1C	-1.7
C[C@@H]1CN([C@@H](C)CO)C(=O)c2cc(NS(C)(=O)=O)ccc2O[C@@H](C)CCCCO[C@H]1CN(C)Cc1ccccc1	-1.5
C[C@H]1CN([C@@H](C)CO)C(=O)CCCn2cc(nn2)CO[C@H]1CN(C)S(=O)(=O)c1cn(C)cn1	?
Cc1noc(C)c1NC(=O)Nc1cccc2c1O[C@@H](CN(C)Cc1ccc(C(=O)O)cc1)[C@H](C)CN([C@H](C)CO)C2=O	6.8
C[C@@H]1CCCCO[C@H](CN(C)C(=O)Nc2ccccc2)[C@@H](C)CN([C@@H](C)CO)C(=O)c2cc(N(C)C)ccc2O1	-2.2
C[C@@H]1CCCCO[C@H](CN(C)C(=O)C2CCCCC2)[C@@H](C)CN([C@@H](C)CO)C(=O)c2cc(NS(=O)(=O)c3ccccc3)ccc2O1	-0.2
COc1ccc(S(=O)(=O)Nc2ccc3c(c2)CC(=O)N([C@H](C)CO)C[C@@H](C)[C@H](CN(C)CC2CC2)O3)cc1	1.0

5 of the compounds above, with values ahead of the structure:
Ran importin,Compound
-2.3,C[C@@H]1CN([C@H](C)CO)C(=O)Cc2cc(NC(=O)Cn3cnnn3)ccc2O[C@@H]1CN(C)C
6.1,C[C@H](CO)N1C[C@H](C)[C@H](CN(C)S(=O)(=O)c2cn(C)cn2)OCCCC[C@H](C)Oc2ccc(NC(=O)c3ccccc3)cc2C1=O
2.3,COc1ccc(CN(C)C[C@@H]2Oc3ccc(NC(=O)Cc4ccccc4)cc3CC(=O)N([C@H](C)CO)C[C@H]2C)cc1
-1.7,Cc1noc(C)c1NC(=O)N(C)C[C@@H]1Oc2ccc(NS(C)(=O)=O)cc2CC(=O)N([C@H](C)CO)C[C@@H]1C
-1.5,C[C@@H]1CN([C@@H](C)CO)C(=O)c2cc(NS(C)(=O)=O)ccc2O[C@@H](C)CCCCO[C@H]1CN(C)Cc1ccccc1

The list continues.
SMILES	Ran importin
C[C@H](CO)N1C[C@H](C)[C@H](CN(C)Cc2ccc3c(c2)OCO3)Oc2ncc(-c3ccc(F)cc3)cc2C1=O	3.1
C[C@@H]1CCCCO[C@H](CN(C)C(=O)CCC(F)(F)F)[C@@H](C)CN([C@H](C)CO)C(=O)c2cc(NS(=O)(=O)c3ccccc3)ccc2O1	4.8
C[C@H](CO)N1C[C@H](C)[C@H](CN(C)C)Oc2ccc(NC(=O)C3CC3)cc2CC1=O	-0.4
CNC[C@H]1Oc2c(NC(=O)c3nc4ccccc4s3)cccc2C(=O)N([C@@H](C)CO)C[C@H]1C	3.4
C[C@@H]1CN([C@H](C)CO)C(=O)Cc2cc(NS(C)(=O)=O)ccc2O[C@@H]1CN(C)C(=O)Nc1ccccc1	-5.2
C[C@H](CO)N1C[C@H](C)[C@@H](CN(C)Cc2ccc(C(=O)O)cc2)Oc2c(NC(=O)NC3CCCCC3)cccc2C1=O	-1.6
CC(C)NC(=O)Nc1ccc2c(c1)C(=O)N([C@H](C)CO)C[C@H](C)[C@@H](CN(C)C(=O)CCCN(C)C)OCCCC[C@H](C)O2	2.3
C[C@H](CO)N1C[C@H](C)[C@@H](CN(C)S(=O)(=O)c2cn(C)cn2)Oc2ccc(NS(C)(=O)=O)cc2CC1=O	0.4
C[C@H]1CN([C@@H](C)CO)C(=O)Cc2cc(NC(=O)Cc3ccccc3)ccc2O[C@H]1CN(C)S(=O)(=O)c1cn(C)cn1	-4.8
C[C@H]1CCCCO[C@H](CN(C)C(=O)C2CCCCC2)[C@@H](C)CN([C@@H](C)CO)C(=O)c2cc(NC(=O)Nc3ccccc3)ccc2O1	2.6
C[C@H]1CN([C@@H](C)CO)C(=O)c2cccc(NC(=O)NC3CCCCC3)c2O[C@H]1CN(C)C(=O)NC1CCCCC1	-0.9
CNC[C@@H]1Oc2ccc(NC(=O)Nc3ccc(F)cc3)cc2C(=O)N([C@H](C)CO)C[C@H]1C	-3.1
Cc1noc(C)c1S(=O)(=O)N(C)C[C@H]1Oc2c(NC(=O)c3nc4ccccc4s3)cccc2C(=O)N([C@H](C)CO)C[C@H]1C	3.1
C[C@@H]1CN([C@H](C)CO)C(=O)Cc2cc(NC(=O)c3ccncc3)ccc2O[C@@H]1CN(C)CC1CC1	-1.3
C[C@@H]1CN([C@H](C)CO)C(=O)c2cc(NC(=O)CCC(F)(F)F)ccc2O[C@@H](C)CCCCO[C@H]1CN(C)C(=O)Nc1ccccc1	-3.5

Sorted by SMILES length (highest first): four of the compounds above.
SMILES	Ran importin
C[C@@H]1CCCCO[C@H](CN(C)C(=O)CCC(F)(F)F)[C@@H](C)CN([C@H](C)CO)C(=O)c2cc(NS(=O)(=O)c3ccccc3)ccc2O1	4.8
CC(C)NC(=O)Nc1ccc2c(c1)C(=O)N([C@H](C)CO)C[C@H](C)[C@@H](CN(C)C(=O)CCCN(C)C)OCCCC[C@H](C)O2	2.3
C[C@H]1CN([C@@H](C)CO)C(=O)Cc2cc(NC(=O)Cc3ccccc3)ccc2O[C@H]1CN(C)S(=O)(=O)c1cn(C)cn1	-4.8
C[C@H](CO)N1C[C@H](C)[C@H](CN(C)C)Oc2ccc(NC(=O)C3CC3)cc2CC1=O	-0.4

Next entries
SMILES	Ran importin
Cc1noc(C)c1S(=O)(=O)N(C)C[C@H]1Oc2ccc(N(C)C)cc2CC(=O)N([C@@H](C)CO)C[C@H]1C	-1.2
C[C@@H]1CN([C@@H](C)CO)C(=O)c2cc(NC(=O)c3ccncc3)ccc2O[C@H]1CN(C)C(=O)Nc1ccc(F)cc1	-2.0
CNC[C@H]1OCCCC[C@@H](C)Oc2ccc(N(C)C)cc2C(=O)N([C@H](C)CO)C[C@@H]1C	-8.0
C[C@H]1CN([C@@H](C)CO)C(=O)c2cc(NC(=O)C3CC3)ccc2O[C@H]1CN(C)Cc1ccc(Cl)c(Cl)c1	5.1
C[C@H]1CN([C@@H](C)CO)C(=O)Cc2cc(NS(C)(=O)=O)ccc2O[C@@H]1CN(C)S(=O)(=O)c1cn(C)cn1	5.7
C[C@@H]1CN([C@@H](C)CO)C(=O)Cc2cc(N(C)C)ccc2O[C@H]1CN(C)C(=O)Nc1cccc2ccccc12	3.0
C[C@H]1CN([C@@H](C)CO)C(=O)c2cc(NS(=O)(=O)c3cn(C)cn3)ccc2O[C@H]1CN(C)C(=O)Nc1ccc2c(c1)OCO2	-1.4
C[C@@H]1CCCCO[C@@H](CN(C)C(=O)c2ccccc2)[C@H](C)CN([C@@H](C)CO)C(=O)c2cc(NS(C)(=O)=O)ccc2O1	?
C[C@@H]1CN([C@@H](C)CO)C(=O)c2cccc(NS(=O)(=O)c3cn(C)cn3)c2O[C@@H]1CN(C)C(=O)NC1CCCCC1	-1.3
C[C@@H]1CN([C@@H](C)CO)C(=O)Cc2cc(NC(=O)C3CC3)ccc2O[C@@H]1CN(C)C	0.5
C[C@H]1CN([C@@H](C)CO)C(=O)c2cccc(NC(=O)c3ccncc3)c2O[C@@H]1CN(C)Cc1ccc(Oc2ccccc2)cc1	-2.7
C[C@@H]1CN([C@H](C)CO)C(=O)c2cccc(NS(=O)(=O)c3cccs3)c2O[C@H]1CN(C)C(=O)Nc1cccc2ccccc12	-0.7
C[C@@H]1CN([C@H](C)CO)C(=O)c2cc(NC(=O)Nc3ccc4c(c3)OCO4)ccc2O[C@H]1CN(C)S(=O)(=O)c1cccs1	3.5
CC(C)NC(=O)N(C)C[C@@H]1Oc2ccc(NS(=O)(=O)c3cn(C)cn3)cc2CC(=O)N([C@@H](C)CO)C[C@H]1C	4.0
C[C@@H]1CN([C@H](C)CO)C(=O)Cc2cc(NS(C)(=O)=O)ccc2O[C@H]1CN(C)Cc1ccc(-c2ccccc2)cc1	1.4
C[C@H]1CN([C@@H](C)CO)C(=O)c2cc(NC(=O)Nc3ccc4c(c3)OCO4)ccc2O[C@@H]1CN(C)Cc1ccc(C(=O)O)cc1	0.7
C[C@H]1CN([C@@H](C)CO)C(=O)c2cc(NS(=O)(=O)c3cccs3)ccc2O[C@@H]1CN(C)Cc1ccc(-c2ccccc2)cc1	-1.9
C[C@@H]1CCCCO[C@H](CN(C)S(=O)(=O)c2cn(C)cn2)[C@@H](C)CN([C@@H](C)CO)C(=O)c2cc(NS(C)(=O)=O)ccc2O1	2.7
C[C@H]1CCCCO[C@H](CN(C)S(=O)(=O)c2cn(C)cn2)[C@@H](C)CN([C@@H](C)CO)C(=O)c2cc(NS(C)(=O)=O)ccc2O1	3.3
CNC[C@@H]1OCCCC[C@H](C)Oc2ccc(NC(=O)Nc3ccccc3)cc2C(=O)N([C@H](C)CO)C[C@H]1C	-4.6
C[C@@H]1CN([C@H](C)CO)C(=O)Cc2cc(NC(=O)Cc3ccccc3)ccc2O[C@H]1CN(C)C(=O)Nc1ccc2c(c1)OCO2	1.4
C[C@@H]1CCCCO[C@H](CN(C)C(=O)CCCN(C)C)[C@H](C)CN([C@H](C)CO)C(=O)c2cc(N(C)C)ccc2O1	-2.3
C[C@@H]1CN([C@H](C)CO)C(=O)c2cccc(NC(=O)c3cnccn3)c2O[C@@H]1CN(C)C(=O)Nc1ccccc1	-0.5
C[C@H]1CN([C@@H](C)CO)C(=O)c2cccc(NC(=O)c3nc4ccccc4s3)c2O[C@@H]1CN(C)C(=O)Nc1ccccc1	-5.6
C[C@@H]1CN([C@H](C)CO)C(=O)c2cc(N(C)C)ccc2O[C@@H](C)CCCCO[C@H]1CN(C)C(=O)c1ccncc1	-8.7
C[C@H]1CCCCO[C@H](CN(C)S(=O)(=O)c2ccc(F)cc2)[C@@H](C)CN([C@@H](C)CO)C(=O)c2cc(NC(=O)Nc3ccccc3)ccc2O1	2.9
C[C@@H]1CN([C@@H](C)CO)C(=O)c2cccc(NC(=O)Nc3ccc(C(F)(F)F)cc3)c2O[C@H]1CN(C)Cc1ccc(C(=O)O)cc1	-2.9
C[C@@H]1CN([C@@H](C)CO)C(=O)c2cc(NS(=O)(=O)c3ccccc3)ccc2O[C@@H](C)CCCCO[C@H]1CN(C)C(=O)CCC(F)(F)F	-2.7
C[C@H](CO)N1C[C@H](C)[C@H](CN(C)C(=O)Nc2cccc3ccccc23)Oc2ccc(NC(=O)C3CC3)cc2CC1=O	-0.6
Cc1noc(C)c1S(=O)(=O)Nc1ccc2c(c1)CC(=O)N([C@H](C)CO)C[C@@H](C)[C@H](CN(C)C(=O)Nc1ccc(F)cc1)O2	0.9

The list is partial; the hit share may differ from the screen's.
